YjeE inh: YjeE (TsaE) inhibition, E. coli | actives 0.05% (n = 71,000) | AID 605 | purified YjeE, fluorescence polarisation of a bound ADP probe | Potency, µM; active = well fitted falling curve; inconclusive = weaker or top-dose-only fall, or a rising curve; inactive = flat or poorly fitted curve;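 also: top concentration of the series not given in the record; excess ADP was the control for the full effect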
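Fluorescence polarization of a BODIPY Texas Red–ADP probe (2 uM) bound to purified YjeE (10 uM) was read after 15 min room-temperature incubation with compounds. Loss of polarization marks inhibitors; ADP serves as titrated control.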
Bst PK mod: alters activity of Bacillus stearothermophilus pyruvate kinase; partly purified Bacillus stearothermophilus pyruvate kinase, luminescence ATP production; ribose 5-phosphate activator present at AC10; Potency, µM; actives 1.2% (n = 51,000); AID 361; in the data active means potency below about 11 µM; inconclusive means mostly about 12 µM to 25 µM; inactive means weaker than that;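 the screen sought inhibitors and activators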;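 also: potency is read from the fitted curve at half-maximal effect; scaled between full activation by ribose 5 phosphate and full inhibition by luteolin; about four in five hits inhibit and the cells do not say which; series up to 57 µM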
Active calls of the source: *; i = inactive; ? = inconclusive; / = not tested or not shown. The list is partial; rates above refer to the full screens.

SMILES	YjeE inh	Bst PK mod
COc1cccc(N2CC(C(=O)OC(C)C(=O)c3ccccc3)CC2=O)c1 (stereo not drawn)	i	>57
COc1ccc(OC)c(S(=O)(=O)N2CCCCC2C(=O)N2CCN(c3ccccn3)CC2)c1 (stereo not drawn)	i	>57
O=C(CC(Sc1ccccc1)c1cccs1)c1ccco1 (stereo not drawn)	i	/
O=C(c1ccco1)N1CCN(C(=O)c2cc(-c3ccncc3)nc3ccc(Br)cc23)CC1	i	7.6*
CC(=O)c1c(C)[nH]c(C(=O)NCCc2cccc(C)c2)c1C	i	>57
CCCCCCCCCCCCCCSCC(=O)O	i	/
C=CCn1c(SCc2ccc(C(=O)OC)cc2)nnc1-c1sc(N)nc1C	i	>57
Cc1csc2ncc(C(=O)Nc3ccc4c(c3)OCCO4)c(=O)n12	i	/
c1ccc(COc2ccc(CNn3cnnc3)cc2)cc1	i	>57
Cc1nc(NC2=NCN(CCN3CCOCC3)CN2)nc2c(C)cccc12	i	>57
CCN(CC)S(=O)(=O)c1ccc2c(c1)c(=O)c(C(=O)N1CCN(c3ccccc3)CC1)cn2C	i	>57
CCN(CC)CCN1C(=O)c2ccccc2NC1c1cccc(F)c1 (stereo not drawn)	i	/
O=C(Nc1ccccc1F)c1cc(S(=O)(=O)N2CCCCC2)cs1	i	>57
Cc1ccc(NC(=O)c2cc(NC(=O)c3ccco3)ccc2N2CCOCC2)cc1	i	>57
COc1cccc(-c2cncnc2NCc2cccs2)c1	i	/
CCOC(=O)N1CCN(C(=O)CSc2ncnc3ccccc23)CC1	i	/
CCCn1c(-c2ccc(F)cc2)nc2c(N3CCN(CCC(=O)OCC)CC3)nc(C)nc21	i	/
CSc1ccc(S(=O)(=O)Nc2ccc(F)cc2)cc1	i	>57
Cc1ccccc1-n1c(SC(C)C(N)=O)nnc1-c1cccnc1 (stereo not drawn)	i	>57
COc1cc(C2C(C(=O)c3cccs3)=C(O)C(=O)N2c2cc(C)on2)ccc1O (stereo not drawn)	/	>26
O=C(NC12CC3CC(CC(C3)C1)C2)N1CCCC(CO)C1 (stereo not drawn)	i	>57
CS(=O)(=O)N1CCN(C(=O)c2ccc(F)cc2)CC1	i	>57
N#Cc1c(-c2ccco2)cc(-c2cccnc2)nc1N	i	/
O=c1ccnc(SCc2ccccc2Cl)[nH]1	i	/
O=S(=O)(NCc1ccc2c(c1)OCO2)c1ccc2c(c1)oc1ccccc12	i	>57
COc1ccccc1-n1cnnc1SCC(=O)N1CCN(S(=O)(=O)c2ccccc2)CC1	i	>57
CC(c1ccccc1)n1cc(C(=O)NCC2CCCO2)nn1 (stereo not drawn)	i	>57
CCCN1C(=O)c2ccc(C(=O)NC3=NCCS3)cc2C1=O	i	/
CCN(CC)C(=O)CSc1nnc([C@H](Cc2c[nH]c3ccccc23)NC(=O)OC(C)(C)C)o1	i	>57
COC(=O)c1[nH]c2ccc(Br)cc2c1NC(=O)C(C)N1CCN(C2CCCCC2)CC1 (stereo not drawn)	i	/
Cc1cc(C)n(C(=O)CSc2nc3ccccc3o2)n1	/	>11
O=C(c1cccn2c(=O)c3cc(Br)ccc3nc12)N1CCN(c2ccccn2)CC1	i	>57
CCN1C(=O)CC(N2CCN(c3ccc(OC)cc3)CC2)C1=O (stereo not drawn)	/	>26
Cc1nnc2c3cnn(-c4ccc(Cl)cc4)c3ncn12	i	>57
COc1cccc(C(=O)N2CCN(C(=O)c3cccc4ccccc34)CC2)c1OC	i	/
Cc1nc2ccc(NC(=O)N3CCN(c4ccccn4)CC3)cc2s1	i	>57
CC1CCCCN1C(=O)Cc1ccc(F)cc1 (stereo not drawn)	i	>57
CN(C)C(=O)c1c(-c2ccccc2)oc2ccc(O)cc12	i	>57
COc1ccc(S(=O)(=O)NCCC(=O)NCc2ccccc2)cc1	i	>57
Cc1[nH]nc(N=CC2=C(O)CC(C)(C)CC2=O)c1-c1ccc(Cl)cc1	i	>57
COc1ccccc1C(CCN(Cc1cccs1)C(C)=O)c1ccco1 (stereo not drawn)	i	>57
CCn1c(CC(=O)Nc2ccc(C)cc2)nnc1SCC(=O)NCc1ccccc1	i	>57
COc1ccccc1OCC(=O)Nc1ccc(S(=O)(=O)N2CCCCCC2)cc1	i	/
C=CCSc1nc(C)c(CC(=O)OCC(C)C)c(=O)[nH]1	i	/
O=C(NCCOc1ccccc1)c1cc2ccccc2o1	i	/
O=C(COc1ccccc1)n1nc(-c2ccc(Cl)cc2)nc1NCc1ccco1	i	>57
COc1ccc(OC)c(NC(=O)Cc2coc3ccc(C)cc23)c1	i	>11
O=C(NCCc1ccccc1)C1CCCN(S(=O)(=O)c2cccnc2)C1 (stereo not drawn)	i	>57
COc1ccc(S(=O)(=O)NCCc2csc(C)n2)cc1C	i	>57
CCCCOC(=O)NS(=O)(=O)c1sc(CC(C)C)cc1-c1ccc(Cn2c(CC)nc3c(C)cc(C)nc32)cc1	i	/

(continued)
SMILES	YjeE inh	Bst PK mod
COc1cc(C(=O)NCC2CCCO2)ccc1OCc1c(C)noc1C (stereo not drawn)	i	>57
Cc1ccc(C)c(-n2nnnc2Sc2nnnn2-c2ccccc2)c1	i	>57
COC(=O)CSc1nnc(-c2ccccc2OC)o1	i	>57
Cn1c(=O)c2c([nH]c(=O)n2C)n(C)c1=O	i	>57
Cc1nn(C/C(C#N)=N\O)c(C)[n+]1N	i	>57
Cc1cc(=O)oc(C)c1C(=O)NCc1c(F)cc(F)cc1F	i	>57
O=C(c1cnccn1)N1CCC2(CC1)CN(c1ccccc1)C2	i	/
Cn1c(=O)oc2cc(S(=O)(=O)NCC3CCCO3)ccc21 (stereo not drawn)	i	>57
CCOc1ccc(-c2nnn(CC(=O)c3ccc4c(c3)OCCO4)n2)cc1OCC	i	>57
CCOc1ccccc1C1C(C(=O)OC)=CN(C)C=C1C(=O)OC	i	>57
O=C(CSc1nnc(Cc2ccccc2)n1Cc1ccco1)NC12CC3CC(CC(C3)C1)C2	i	>57
CC(=NC(C)C)C1=C(O)CCC1=O	i	>57
CC(=O)Oc1cc2oc(=O)c3c(c2cc1Cl)CCC3	i	>57
Cc1ccnc(N2CCC(C(=O)Nc3ccc(Oc4ccccc4)cc3)CC2)n1	i	>57
CCOC(=O)c1oc2ccccc2c1NC(=O)COc1cccc(OC)c1	i	>57
CCn1c(=N)n(CC(O)c2ccco2)c2ccccc21 (stereo not drawn)	i	>57
COc1cccc(-c2nc(CS(=O)CC(=O)NCc3ccccc3)c(C)o2)c1 (stereo not drawn)	i	/
O=C(Nc1ccc(Cl)cn1)c1cc2ccccc2o1	i	?
CCOC(=O)c1cnc(-n2nc(C)cc2C)nc1NCc1ccccc1	i	>57
O=C(O)C1CCCN1S(=O)(=O)c1cc(Cl)ccc1Cl (stereo not drawn)	i	/
N[C@@H](C(=O)O)c1ccc(P(=O)(O)O)cc1	i	/
c1ccc(-c2nc3cc(Oc4ccc5oc(-c6ccccn6)nc5c4)ccc3o2)nc1	i	>57
CN(C(=O)c1cccc(N2C(=O)C3CC=CCC3C2=O)c1)C1CCCCC1 (stereo not drawn)	i	>57
O=C(OCc1nc2ccccc2s1)c1cnccn1	i	/
Cc1cccc(OCC(=O)OCC(=O)c2c(N)n(C)c(=O)n(C)c2=O)c1	i	>57
CC(C)OC(=O)c1nn2c(C(F)(F)F)cc(-c3ccc(Br)o3)nc2c1Br	/	>26
COc1ccc(OC)c(Nc2nc(-c3sc(C)nc3C)cs2)c1	i	/
CC[N+](CC)(CC)CCOc1cccc(OCC[N+](CC)(CC)CC)c1OCC[N+](CC)(CC)CC	i	/
CCc1ccccc1NC(=O)CN(C)Cc1nc(N)nc(Nc2ccccc2C)n1	i	>57
C=CCn1c(NC(=O)c2ccc(Br)o2)c(C(=O)OCC)sc1=S	i	>57
O=C(OCC(=O)N1CCCC1)c1cccs1	i	>57
C/C(=N\n1nnnc1Nc1ccccc1)c1ccc(N)cc1	i	>57
O=c1[nH]c(SCc2n[nH]c(=S)n2-c2ccccc2)nc2ccccc12	i	>57
Cc1c(C(=O)O)oc2c1C(O)CC(C)(C)C2 (stereo not drawn)	i	>57
CCCCS(=O)CC(CS(=O)CCCC)OC(=O)c1ccccc1 (stereo not drawn)	i	/
CC1CCC(NC(=O)CN2C(=O)C3CCCN3c3ncc(Cl)cc32)CC1 (stereo not drawn)	i	>57
O=C1c2[nH]nc(-c3ccccc3O)c2C(c2cccc(Cl)c2)N1Cc1ccco1 (stereo not drawn)	i	>57
CC1CN(S(=O)(=O)c2cn(C)c(=O)n(C)c2=O)CC(C)O1 (stereo not drawn)	i	/
O=C(c1ccccc1Cl)N1CCCC(c2nc3c(nnn3Cc3ccccc3)c(=O)[nH]2)C1 (stereo not drawn)	i	>57
Cc1ccc2c(c1)-c1c(cnn1CC(=O)N(CCC#N)c1ccccc1)CO2	i	/
COc1ccc(C(N)CCc2ccc(C)o2)cc1 (stereo not drawn)	i	>57
CCCN(CCC)C(=O)c1ccc2c(c1)N(Cc1ccccc1)C(=O)CS2=O (stereo not drawn)	i	/
CCCCN(c1ccccc1)S(=O)(=O)c1ccc2c(c1)CCN2C(=O)CCC(=O)O	i	>57
O=C(NCC1CCCO1)c1cc2ccccc2[nH]1 (stereo not drawn)	i	>57
Brc1ccc(-c2cnnc(N3CCCC3)n2)cc1	/	2.4*
CS(=O)(=O)N1CCC2(CC1)CN(Cc1ccc(C#N)cc1)C2	i	/
NS(=O)(=O)c1cccc2c1c([N+](=O)[O-])cc1[nH]c(=O)c(=O)[nH]c12	i	/
CN1CCN(CC(C)(C)NS(=O)(=O)c2ccc(Cl)cc2)CC1	i	>57
Cn1c(N)c(C(=O)COC(=O)Cn2cc(C(F)(F)F)ccc2=O)c(=O)n(C)c1=O	i	>57
CC(OC(=O)c1cccs1)C(=O)NCC1CCCO1 (stereo not drawn)	i	>57

Other structures follow.
SMILES	YjeE inh	Bst PK mod
CC1(C)Cc2nc3n[nH]c(N)c3cc2CO1	i	>57
O=C(Oc1ccccc1)c1ccc(COC(=O)c2cnccn2)cc1	i	>57
COC(=O)c1ccc(CSc2nnc3ccccn23)o1	i	>57
c1ccc2sc(SCCSc3nc4ccccc4s3)nc2c1	i	/
CCOc1ccccc1N1C(=O)c2ccc(C(=O)Nc3cccnc3)cc2C1=O	i	/
COc1ccc(N(C)C(=O)CCC(=O)Nc2ccc3nc(N4CCOCC4)cc(C)c3c2)c(OC)c1	i	>57
CC(=O)c1c(C)[nH]c(C(=O)OC2CCOC2=O)c1C (stereo not drawn)	i	>57
CCOC(=O)c1cccc(NC(=O)CSc2nnc(-c3ccncc3)n2CCCOC)c1	i	>57
CCn1c(C)c2c(C)nnc(C)c2c1C	i	/
O=C(O)CCN(CCC(=O)O)c1nnc(SCc2ccccc2)s1	/	>11
Cc1ccc(S(=O)(=O)NC(=NCC(=O)O)c2ccccc2)cc1	i	/
O=C(CSc1nccc(=O)[nH]1)N1CCCc2ccccc21	i	/
COC(=O)/C(=C1/Oc2cc3c(cc2S1)OCO3)C(F)(F)F	i	>57
Cn1cc(-c2nc3cnc(Oc4cccc(Cl)c4)nc3n(C3CC3)c2=O)c2ccccc21	i	/
Cc1ccc(CSC2=NCCN2C(=O)c2ccco2)cc1	i	/
O=C(CSc1nnc(-c2ccncc2)n1Cc1ccco1)Nc1ccccc1Cl	i	>57
O=C(C[n+]1ccc2ccccc2c1)c1ccc2ccc3ccccc3c2c1	i	/
Cc1ncc(C23CC4CC(CC(C4)C2)C3)[nH]1	i	/
CCOC(=O)N1CCN(C(=O)c2cn(-c3ccc(C)c(C)c3)c(=O)c3ccccc23)CC1	i	>57
CC1(C)NC(=O)N(CCOc2cccc(Cl)c2Cl)C1=O	i	>57
N=C1N=C(N)c2cc3ccccc3cc21	i	/
CCC(C)NS(=O)(=O)c1ccc(NS(C)(=O)=O)cc1 (stereo not drawn)	i	>57
CCOC(=O)Cn1c(=O)oc2cc(S(=O)(=O)NCc3ccccn3)ccc21	i	/
O=C(NCc1ccco1)C(c1cccs1)N(Cc1ccccc1)C(=O)Cn1nnc2ccccc21 (stereo not drawn)	i	>57
COc1ccc(C2N3CC4(C)CN2CC(C)(C3)C4)cc1OC (stereo not drawn)	i	>57

High-throughput results: PubChem, National Center for Advancing Translational Sciences (NCATS)
